Jurkat NFkB inh = inhibitors of induced NF-kB luciferase reporter, primary screen, TCR NF-kB activation inhibitor project, cell-based, luminescence, uHTS | 330,000 tested, 0.53% active | inhibition, % at 4 µM | AID 435003, 2010 | Jurkat, PMA/ionomycin-induced NF-kB luciferase reporter; in the data active = inhibition above about 50%
Mdm2 MdmX PPI = inhibitors of human Mdm2-MdmX association, primary screen, cell-based, luminescence, split luciferase, SaOS-2, uHTS; Protein Mdm4 (Homo sapiens) + E3 ubiquitin-protein ligase Mdm2 (Homo sapiens), …; SaOS-2 split-luciferase Mdm2/MdmX complementation; inhibition, % at 8 µM; 330,000 tested, 3% active; AID 485346, 2010;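 active = inhibition of at least 50% at 8 µM in the primary screen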
Target sequence (O15151 whole entry, looked up): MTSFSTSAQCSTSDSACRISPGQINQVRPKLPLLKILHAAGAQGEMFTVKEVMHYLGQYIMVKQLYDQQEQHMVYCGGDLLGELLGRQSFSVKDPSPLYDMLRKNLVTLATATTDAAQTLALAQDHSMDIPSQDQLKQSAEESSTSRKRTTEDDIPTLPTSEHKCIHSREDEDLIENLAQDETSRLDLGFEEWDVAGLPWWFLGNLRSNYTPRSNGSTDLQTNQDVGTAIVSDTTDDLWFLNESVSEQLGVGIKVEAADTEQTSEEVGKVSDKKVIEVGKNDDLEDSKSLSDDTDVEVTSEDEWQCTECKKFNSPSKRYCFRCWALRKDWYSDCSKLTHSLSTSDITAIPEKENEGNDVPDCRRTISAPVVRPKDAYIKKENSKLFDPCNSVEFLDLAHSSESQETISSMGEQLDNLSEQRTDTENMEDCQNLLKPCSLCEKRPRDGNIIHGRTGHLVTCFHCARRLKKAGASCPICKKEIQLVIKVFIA
Target sequence (Q00987 whole entry, looked up): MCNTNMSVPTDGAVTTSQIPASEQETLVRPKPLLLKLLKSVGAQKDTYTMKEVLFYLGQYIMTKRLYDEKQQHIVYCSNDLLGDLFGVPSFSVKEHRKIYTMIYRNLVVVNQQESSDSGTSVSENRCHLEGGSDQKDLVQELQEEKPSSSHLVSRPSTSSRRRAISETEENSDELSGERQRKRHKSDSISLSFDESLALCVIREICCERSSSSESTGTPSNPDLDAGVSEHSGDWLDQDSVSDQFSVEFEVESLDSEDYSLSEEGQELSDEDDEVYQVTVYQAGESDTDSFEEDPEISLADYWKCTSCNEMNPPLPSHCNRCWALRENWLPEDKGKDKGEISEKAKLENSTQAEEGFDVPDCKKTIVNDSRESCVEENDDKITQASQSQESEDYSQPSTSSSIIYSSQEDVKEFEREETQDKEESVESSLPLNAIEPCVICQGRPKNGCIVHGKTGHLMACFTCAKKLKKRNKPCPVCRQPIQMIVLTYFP
EBI2 block = EBI2 receptor antagonists, beta-arrestin recruitment, primary screen, cell-based, luminescence, 7a,25-OHC stimulation, uHTS; G-protein coupled receptor 183 (Homo sapiens), P32249; 7a,25-OHC stimulated; inhibition, % at 5 µM; 360,000 tested, 0.81% active; AID 651636, 2012; in the data active = inhibition above about 38%;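 also: enzyme fragment complementation signal reports receptor beta-arrestin coupling in cells; 0% = agonist plus DMSO wells and 100% = wells without agonist; some results beyond the cut were filed as inactive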
UPR XBP1 act = activators of adaptive XBP1 UPR arm, primary screen, cell-based, CHO-XBP1 luciferase reporter, luminescence, uHTS | 330,000 tested, 0.33% active | activation, % at 20 µM | IRE1-XBP1 UPR activation; percent of tunicamycin response, DMSO as zero;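 active = versus positive control, 20 µM dose yields 30% or more activation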;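 also: 100% = tunicamycin at 10 µg/mL and 0% = DMSO only wells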
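Test system: CHO-XBP1 luciferase reporter cells | Buffer or medium: Serum-containing F12 medium, 10% FBS | Schedule: 6 h compound exposure at 37 °C, 5% CO2 | Detection: Steady-Glo luciferase glow luminescence, 10 min after reagent addition | Read-out basis: Activation, % of tunicamycin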
Gli-Sufu block = Gli-Sufu pathway antagonists, primary screen, luciferase luminescence, Sufu-KO-LIGHT cells, uHTS. 340,000 tested, 0.74% active. inhibition, % at 5 µM. Sufu-KO-LIGHT fibroblasts, Gli luciferase reporter luminescence;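 active = inhibition above about 55%, limit read from the data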;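 also: 0% = DMSO-treated cells and 100% = wells with medium but no cells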
697 NFkB inh = inhibitors of PMA/ionomycin-induced NF-kB reporter, 697 cells, primary screen, B-cell NF-kB inhibitor project, cell-based, luminescence, uHTS | 697 B-cell NF-kB luciferase reporter, 16 h | inhibition, % at 4 µM | 330,000 tested, 0.33% active | AID 435022, 2010; in the data active = inhibition above about 35%
UPR CHOP act = activators of apoptotic CHOP UPR arm, primary screen, cell-based, CHO-CHOP luciferase reporter, luminescence, uHTS | UPR activation; percent of tunicamycin response over DMSO baseline | activation, % at 10 µM | 330,000 tested, 0.34% active | AID 449763, 2010;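 active = at 10 µM dose, activation of 40% or more, normalized to positive control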;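 also: 100% = tunicamycin at 10 µg/mL and 0% = DMSO alone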
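Test system: CHO CHOP reporter cells. Input: 500 CHO-CHOP cells per well. Medium: F12 with 10% FBS. Technique: luciferase luminescence. Measure: percent activation relative to tunicamycin control. Dosing: 10 µM compound, 0.5% DMSO. Timing: 16-18 h cell attachment, then 6 h compound exposure, 37 °C.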
* = called active by the depositor; x = not tested or not shown.

Second line of a record: Jurkat NFkB inh	Mdm2 MdmX PPI	EBI2 block	UPR XBP1 act	Gli-Sufu block	697 NFkB inh	UPR CHOP act
Cn1nnc(NC(=S)NC(=O)c2cccc3c(Cl)cccc23)n1
 : -5	23	5	-1	7	7	0.1
O=C(O)c1cc2ccc3ccccc3c2oc1=O
 : -2	20	-1	-3	6	5	1.0
Cn1c(SCC(=O)c2ccc3c(c2)OCCO3)nnc1C(F)(F)F
 : -5	7	-6	-1	-3	14	2.1
Cc1cc(C)cc(C(=O)N/N=C/c2ccoc2)c1
 : -5	14	1	-2	-6	29	0.2
CCC(CC)NC(=O)c1nn(Cc2ccccc2)c(=O)c2ccccc12
 : -4	13	12	-4	5	-10	2.6
COc1ccc(/C=C2/Sc3ccc(C(=O)N4CCc5ccccc5C4)cc3NC2=O)cc1
 : 12	14	13	-3	-3	9	1.3
O=C(O)c1ccc(N/N=C/C=C/c2ccc([N+](=O)[O-])o2)cc1
 : 14	-3	7	-2	-11	-15	0.5
c1ccc2c(c1)Cn1c-2nc2ccccc21
 : -93	-112	-11	1	-92	-107	3.2
CCCSc1nc(N2CCCC2)c2c(c1C#N)CC(C)(C)OC2
 : -3	-26	0	-2	2	-40	-1.2
O=C(COC(=O)CNC(=O)c1cccs1)Nc1ccc(C(F)(F)F)cc1[N+](=O)[O-]
 : 5	-1	-20	2	-2	13	0.7
Fc1ccc(-n2cc(-c3ccccc3)c3c(NN4CCOCC4)ncnc32)cc1
 : 0	-5	22	-3	9	3	-0.9
Cc1ccc(S(C)=O)cc1-n1c(=O)n(Cc2ccccc2)c(=O)c2[nH]cnc21 (stereo not given)
 : -4	-9	67*	-2	30	8	-0.9
CC(C)C(NS(=O)(=O)c1cccc2nsnc12)C(=O)Nc1nccs1 (stereo not given)
 : 4	-12	-14	-4	-2	4	0.7
CC1=C(C(=O)Nc2cccnc2)C(c2ccccn2)n2nnnc2N1 (stereo not given)
 : 2	-3	-33	0	-2	15	-2.7
C=CCn1c(C)cc(C(=O)COc2ccc(S(=O)(=O)N3CCCC3)cc2[N+](=O)[O-])c1C
 : 6	-25	-3	-1	1	-8	-0.4
COCCNC(=O)C(C#N)c1nc2ccccc2nc1N1CCCCCC1 (stereo not given)
 : 9	23	12	-2	-1	14	-2.8
N#Cc1c[nH]n2c(=O)c3c(nc12)CCC3
 : -3	29	5	-5	-7	7	-0.1
CC1(C)CC(=O)C(C=Nc2cccnc2/N=C/C2=C(O)CC(C)(C)CC2=O)=C(O)C1
 : -2	17	96*	4	19	9	22
Cc1cc(C)c(NC(=O)C2CCCN2CCC(C)C)c(C)c1 (stereo not given)
 : -11	6	-7	2	10	1	1.4
O=C(N/N=C/c1ccoc1)c1cc(O)cc(O)c1
 : -4	28	6	-2	-4	-2	2.3
COc1ccc(-c2nnc(-c3ccc(F)cc3)o2)cc1
 : -94	-116	17	-4	-28	-150	3.1
N=C1SCC(=O)N1c1ncc(Cc2ccc(F)cc2)s1
 : -5	-6	-6	0	11	-9	0.6
CCCOC(=O)CSc1nc(N2CCOCC2)c2c(c1C#N)CC(C)(C)OC2
 : -1	8	2	-4	32	-1	1.3
COc1ccc(C(=O)OCC(N)=O)cc1[N+](=O)[O-]
 : 11	12	-18	-3	-6	18	-1.0
CCCNC(=O)c1c(N)n(-c2ccc3c(c2)OCO3)c2nc3ccccc3nc12
 : 0	47	9	44*	12	10	20
CC(=O)Nc1nc2c(C)cc(NC(=O)C3CCCCC3)cc2s1
 : -83	20	6	2	-55	-67	6.2
CCCCOC(=O)C1CCCC(C(=O)OCCCC)N1 (stereo not given)
 : -22	7	-8	1	0	-9	-2.2
O=C(N/N=C/c1cccc([N+](=O)[O-])c1)c1cccc(Br)c1
 : -15	-9	8	1	-14	-19	9.0
O=C(Nc1nnc(-c2ccc3c(c2)CCCC3)o1)c1ccccc1
 : -5	57*	-5	-2	-1	-40	-2.9
C=C1CCN([C@@H](CC(C)C)C(=O)N2CCOCC2)S(=O)(=O)c2ccccc21
 : 3	-8	-8	4	-4	1	2.7

(cont.)
Second line of a record: Jurkat NFkB inh	Mdm2 MdmX PPI	EBI2 block	UPR XBP1 act	Gli-Sufu block	697 NFkB inh	UPR CHOP act
O=[N+]([O-])c1cc(Cl)c(O)c2ncccc12
 : 24	51*	3	-2	-2	0	0.1
CC1(C)Cc2c(C#N)c(SCc3ccccc3)nc(N3CCOCC3)c2CO1
 : -12	18	24	-5	6	-8	-3.2
O=S(=O)(Nc1cccc(C(F)(F)F)c1)c1cnc[nH]1
 : -6	0	-3	0	-5	6	0.4
COc1ccc(C(=O)COC(=O)c2nn(C)cc2Cl)cc1
 : 7	27	5	5	-29	2	6.7
CC(=O)c1ccc(NC(=S)NNC(=O)c2ccncc2)cc1
 : -28	-18	-17	-1	-6	-35	2.0
O=C1Nc2cc(C(=O)N3CCN(c4ccccn4)CC3)ccc2S/C1=C\c1ccccc1
 : 0	18	0	-5	26	-30	-1.1
COCC(C)NC(=O)c1nn(Cc2ccccc2)c(=O)c2ccccc12 (stereo not given)
 : 11	19	-2	-9	1	7	2.1
CC(/C=C/c1ccc2c(c1)OCO2)=N/NC(=O)c1cccnc1
 : -3	2	-9	-2	-4	-13	0.0
CCN(CC)CCn1c(NC(=O)c2ccccc2O)nc2ccccc21
 : -7	39	-5	1	18	-37	3.8
CC(=O)c1cccc(NC(=O)c2ccc(-c3ccccc3[N+](=O)[O-])o2)c1
 : -123	-270	-3	2	15	-131	6.7
N#CC(c1cccc(C(F)(F)F)c1)(c1ncc(C(F)(F)F)cc1Cl)N1CCOCC1 (stereo not given)
 : -2	-17	27	-1	16	-36	0.4
CCC1Nc2ncnc(N3CCc4ccccc4C3)c2N(Cc2ccc(Br)cc2)C1=O (stereo not given)
 : x	x	28	x	x	x	x
O=C(O)COCC(=O)Nc1ccc2c(c1)ncn2CCc1ccccc1
 : 3	-10	4	-6	-5	5	3.3
O=C(COC(=O)c1cc(Cl)nc2ccccc12)c1ccc(Cl)cc1
 : -4	20	-1	-1	53	-22	-0.6
CC(C)CC1Nc2ncnc(N3CCOCC3)c2N(Cc2ccc(Br)cc2)C1=O (stereo not given)
 : -11	8	4	2	1	2	0.5
CC(=O)Nc1nonc1-c1nc2ccccc2n1CCC#N
 : -4	3	-12	-4	2	19	-0.4
CCN(CCCNC(=O)C1CCN(S(=O)(=O)c2c(C)[nH]c(=O)[nH]c2=O)CC1)c1cccc(C)c1
 : 11	22	0	-1	-4	6	0.6
Oc1[nH]c(=S)sc1/C=C1\C(c2ccccc2)=Nc2ccccc21
 : x	x	5	x	-10	x	x
CC(C)c1ccc(O)c(NC(=S)NC(=O)c2ccc3c(c2)OCO3)c1
 : -59	18	8	1	-28	-64	5.2
C/C(=N/NC(=O)c1cccc(C)c1)c1c(O)cc(C)oc1=O
 : 6	6	-2	-2	-10	-9	1.2
CN(Cc1ccccc1)C(=O)COC(=O)CCC(=O)c1ccc(F)cc1
 : -5	-5	-1	0	5	-9	0.4
O=C(NN=Cc1ccc(F)c(F)c1)c1ccc(NS(=O)(=O)c2cccs2)cc1
 : -7	-7	-1	2	0	-15	0.5
CC1CCCCN1C(=O)COc1ccc(S(=O)(=O)N2CCCC2)cc1[N+](=O)[O-] (stereo not given)
 : 13	-18	-10	3	-3	8	-0.3
COc1ccccc1NC(=O)C1=C(C)Nc2nnnn2C1c1ccncc1 (stereo not given)
 : -6	14	5	1	7	27	-0.1
CCN1CCCC1CNS(=O)(=O)c1ccc(C(=O)Nc2ccccc2)cc1 (stereo not given)
 : -4	4	4	-1	9	7	0.1
COc1ccc(S(=O)(=O)N(CCCN2CCOCC2)Cc2ccc(OC)c(OC)c2)cc1
 : 6	12	-4	0	-17	15	-4.5
COC(=O)C1=NN(c2ccc(C)cc2)C2C(=O)N(c3ccccc3OC)C(=O)C12 (stereo not given)
 : -3	25	10	-4	-4	-8	1.1
Cn1nnc(NC(=S)NC(=O)c2cccc3c(Br)cccc23)n1
 : 4	-6	11	-2	7	-12	-0.5
Clc1ccc(-c2nnc(SCc3nc4ccccc4s3)o2)cc1
 : -24	2	5	-2	-22	-30	3.1
O=C(NN=Cc1ccccc1OC(F)F)c1ccc(NS(=O)(=O)c2cccs2)cc1
 : -29	21	1	-2	-5	12	2.9

(further entries)
Second line of a record: Jurkat NFkB inh	Mdm2 MdmX PPI	EBI2 block	UPR XBP1 act	Gli-Sufu block	697 NFkB inh	UPR CHOP act
Nc1ccccc1Oc1ncc(C(F)(F)F)cc1Cl
 : -10	25	3	-1	-6	-8	-0.1
CCN(CC)CCNc1nc2nonc2nc1NCCN(CC)CC
 : -11	40	4	1	7	-17	-0.6
CN(C)C(CNc1ccc(C(F)(F)F)cc1[N+](=O)[O-])c1ccccc1 (stereo not given)
 : -13	15	-8	7	-9	-3	0.2
COc1ccc(-c2cc(-c3n[nH]c(=S)n3-c3ccccc3OC)[nH]n2)cc1
 : 13	5	1	0	5	-10	0.7
CC(=O)OCCc1c(C)nc2nc[nH]n2c1=O
 : -12	-13	-5	-1	-5	-13	0.0
Nc1nonc1-c1nc2ccccc2n1Cc1ccc(F)cc1
 : 2	54*	2	2	-1	8	1.7
COc1ccc(C2SC[C@@H](C(=O)O)N2C(C)=O)cc1 (stereo not given in full)
 : -12	10	2	-6	6	-3	-4.3

Bioassay records from PubChem BioAssay.

A portion of the library; the hit share may differ from the screen's.
